STK33 kinase inh: human STK33 kinase inhibition. 0.073% of 320,000 active. purified STK33, MBP phosphorylation, ADP-Glo luminescence. AID 2661. inhibition, % at 10 µM;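 active = inhibition at or above 25%, using the most active replicate where run in duplicate; inactive = inhibition below 25%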
Target sequence (Q9BYT3 whole entry, looked up): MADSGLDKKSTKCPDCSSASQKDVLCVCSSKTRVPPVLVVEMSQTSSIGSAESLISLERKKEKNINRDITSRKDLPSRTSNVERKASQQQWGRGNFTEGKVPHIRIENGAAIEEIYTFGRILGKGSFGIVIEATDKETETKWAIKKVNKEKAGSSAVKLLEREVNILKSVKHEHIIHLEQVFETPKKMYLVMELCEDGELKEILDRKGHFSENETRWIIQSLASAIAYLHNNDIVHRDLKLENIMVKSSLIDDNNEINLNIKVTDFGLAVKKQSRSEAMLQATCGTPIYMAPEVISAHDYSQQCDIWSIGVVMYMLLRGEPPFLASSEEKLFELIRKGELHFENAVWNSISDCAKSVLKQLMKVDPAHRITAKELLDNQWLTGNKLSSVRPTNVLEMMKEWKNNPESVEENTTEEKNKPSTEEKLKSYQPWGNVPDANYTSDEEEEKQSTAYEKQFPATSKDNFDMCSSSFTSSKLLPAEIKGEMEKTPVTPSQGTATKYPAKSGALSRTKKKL
Starred values were filed as active, the others as inactive; & = joins results of further samples. An excerpt, and most or all hits are left out here.

Cc1cc(Br)c(NC(=O)COC(=O)C2CC2C)c(Br)c1 (stereo not drawn) was read as STK33 kinase inh -1.2.
Screening CCOC(CC(=O)NNC(=O)c1c(-c2ccccc2Cl)noc1C)OCC returned STK33 kinase inh 0.7.
For COc1ccc(-c2ccc(OC)c([C@H]3[C@H]4C=CC[C@@H](C)[C@@H]4C(=O)N3Cc3ccccc3)c2)cc1C the results were STK33 kinase inh -0.6.
Screening O=C1c2ccccc2NC(c2cccc(Cl)c2)N1N=C1CCCCCC1 (stereo not drawn) returned STK33 kinase inh 0.1.
For O=C(CSCCS(=O)(=O)c1ccc(Cl)cc1)Nc1ccccc1 the results were STK33 kinase inh -0.5.
`CCOc1ccccc1Nc1nc2ccccc2n2cnnc12` gave STK33 kinase inh -0.2.
Screening O=C1C2C3CCC(C3)C2C(=O)N1c1ccc2ccccc2c1 (stereo not drawn) returned STK33 kinase inh -1.7.
O=C(CSc1nnnn1-c1ccccc1)Nc1ncc(Cc2ccccc2Cl)s1 was read as STK33 kinase inh -0.4.
`COc1ccc2cc([C@H](C)C(=O)O)ccc2c1` gave STK33 kinase inh -0.8.
CCOc1ccccc1NC(=O)CCS(=O)(=O)c1cccc2nsnc12 was read as STK33 kinase inh 2.1.
For CSc1cccc(NC(=S)N(CCCN2CCC(C)CC2)Cc2cccs2)c1 the results were STK33 kinase inh -0.7.
`COCc1nnc(NC(=O)C2CC(=O)N(C3CCCCC3)C2)s1` (stereo not drawn) gave STK33 kinase inh -0.6.
`COc1ccc(S(=O)(=O)N2CCCN(CC(=O)Nc3cc(NC(C)=O)ccc3OC)CC2)cc1` gave STK33 kinase inh 0.6.
`COc1ccccc1NC(=O)CCN1C(=O)C2C3CCC(C3)C2C1=O` (stereo not drawn) gave STK33 kinase inh 4.4.
For CCCCN1CC(=O)N2[C@H]3c4cc(Cl)ccc4OC[C@@H]3[C@H](c3ccccc3)[C@]2(C)C1=O the results were STK33 kinase inh -0.1.
CCOC(=O)CSc1n[nH]c(NC(=O)NC(C)C)n1 was read as STK33 kinase inh -0.5.
C=CCc1ccccc1OCC(O)CN1CCN(Cc2ccc3c(c2)OCO3)CC1 (stereo not drawn) was read as STK33 kinase inh -1.4&-1.3.
Screening CC1CN(C(=O)CCC(=O)N2CCN(c3cccc(C(F)(F)F)c3)CC2)c2ccccc2O1 (stereo not drawn) returned STK33 kinase inh -1.8.
CCOC(=O)N1CCN(C(=O)C2CC(=O)N(c3ccc(C)cc3)C2)CC1 (stereo not drawn) was read as STK33 kinase inh -1.5.
CNC(=S)NNC(=O)Cc1ccc(O)cc1 was read as STK33 kinase inh -0.1.
CCCCCn1c(CN2CCN(Cc3ccccc3)CC2)nc2c1c(=O)[nH]c(=O)n2C was read as STK33 kinase inh -0.9.
`CN1/C(=C\C=C2/C(=O)Oc3ccccc3C2=O)C(C)(C)c2ccccc21` gave STK33 kinase inh 1.2.
Screening Cc1nonc1CC(=O)NC1CC(C)(C)Cc2c1cnn2-c1ccc(F)cc1 (stereo not drawn) returned STK33 kinase inh -0.5.
Screening CCn1c(CCNC(=O)c2cccs2)nnc1SCC(=O)Nc1nc(-c2ccccc2)cs1 returned STK33 kinase inh -0.7.
Screening O=C(CN1CCOCCOCCN(CC(=O)Nc2ccccc2)CCOCC1)Nc1ccccc1 returned STK33 kinase inh -0.2.
`Cn1ncc(N=Cc2ccc([N+](=O)[O-])cc2)c1C(=O)Nc1ccccc1` gave STK33 kinase inh -5.1.
O=C(NNS(=O)(=O)c1ccccc1)C1CCN(S(=O)(=O)c2ccccc2)CC1 was read as STK33 kinase inh 1.2.
For COc1ccc(NC2CC(=O)N(c3cc([N+](=O)[O-])ccc3C)C2=O)cc1 (stereo not drawn) the results were STK33 kinase inh 1.1.
Nn1c(SCC(=O)NC2CCCCCC2)nnc1C(F)(F)F was read as STK33 kinase inh 3.6.
CC(C)CNC(=O)CN(c1cccc(Cl)c1)S(C)(=O)=O was read as STK33 kinase inh -0.4.
For Cc1ccc(C(=O)n2nc(-c3ccco3)nc2N)cc1 the results were STK33 kinase inh -0.5.
`CCOc1ccc(NC(=O)CN(C)C(=O)CSC(C)C(=O)Nc2cc(C)on2)cc1OCC` (stereo not drawn) gave STK33 kinase inh 0.1.
For O=C(N/N=C/c1ccc([N+](=O)[O-])o1)c1cn(-c2ccccc2)nc1-c1ccc(F)cc1 the results were STK33 kinase inh -2.0.
For COc1ccc(-c2csc(NC(CO)c3nc4ccccc4n3Cc3ccc(C)cc3)n2)cc1 (stereo not drawn) the results were STK33 kinase inh -1.4.
COc1ccc(Cl)cc1S(=O)(=O)N1CCC(C(=O)NCc2ccco2)CC1 was read as STK33 kinase inh -3.6.
`Cc1c(Cl)cccc1NC(CC(=O)c1ccccc1)C(=O)OCC(=O)c1cccs1` (stereo not drawn) gave STK33 kinase inh 0.0.
For CCCn1c(SCC(=O)Nc2cccc(C)n2)nnc1-c1ccco1 the results were STK33 kinase inh -1.2.
`O=C(c1ccccc1)c1nc[nH]c1C(=O)Nc1ccccn1` gave STK33 kinase inh -0.8.
Screening N[C@@H](Cc1ccc(O)cc1)c1nnc([C@H](CCC(=O)O)NC(=O)C2CCNCC2)o1 returned STK33 kinase inh -0.1.
Screening CCCN1C(=O)C(O)(C2CC(=O)CC(C)(C)O2)c2ccccc21 (stereo not drawn) returned STK33 kinase inh -0.5.
Screening COC(=O)C(=O)Nc1nnc(COc2ccccc2)s1 returned STK33 kinase inh 0.1.
Cc1c(C(=O)OCC(=O)N2CCC(C)CC2)oc2ccccc12 was read as STK33 kinase inh 1.0.
Screening CCn1c(COc2cccc(OC)c2)nnc1SCC(=O)NCC1CCCO1 (stereo not drawn) returned STK33 kinase inh -1.7.
For CCNC(=S)N1CCN(S(=O)(=O)c2ccc(C)c(C)c2)CC1 the results were STK33 kinase inh -0.6.
Screening CC(C)(C)[C@@H]1C=C(C(=O)O)O[C@H](OCCCCO)C1 returned STK33 kinase inh 0.1.
For CC1CCCCN1S(=O)(=O)c1ccc(S(=O)(=O)N2CCN(C)CC2)cc1 (stereo not drawn) the results were STK33 kinase inh 0.9.
Screening Cc1oc2nc(SCCCC(=O)NCCO)nc(N)c2c1C returned STK33 kinase inh -0.1.
Screening O=C(Cn1nnc(-c2ccccc2)n1)Nc1cccc(S(=O)(=O)N2CCOCC2)c1 returned STK33 kinase inh -0.5.
CCCn1nnc2ccccc2c1=O was read as STK33 kinase inh -1.6.
`COc1ccc(S(=O)(=O)N2CCN(C(=O)c3cc(C)oc3C)CC2)cc1` gave STK33 kinase inh 0.0.
For Cc1cc(Nc2ccc3ccccc3c2)n2ncnc2n1 the results were STK33 kinase inh -3.4.
For CCN(CC)c1nc(C#N)cc(-c2ccc(OC)cc2)n1 the results were STK33 kinase inh -0.7.
Screening CC1CCCCN1C(=O)CSc1nnc(CSc2ncccn2)n1C (stereo not drawn) returned STK33 kinase inh -0.6.
`O=c1[nH]c(-c2ccccn2)nc2ccccc12` gave STK33 kinase inh 0.2.
CCOc1ccc(NC(=O)N2CCC(NC(=O)C(Cc3ccc(OC)c(OC)c3)NC(C)=O)CC2)cc1 (stereo not drawn) was read as STK33 kinase inh 0.3.
`Cc1ccsc1/C=N/NC(=O)CN1CCN(S(=O)(=O)c2ccc(Br)cc2)CC1` gave STK33 kinase inh -1.0.
O=C(Cc1ccccc1)NCC(=O)Nc1ccccc1Br was read as STK33 kinase inh -1.3.
COCCNc1cc(C)nc2ccccc12 was read as STK33 kinase inh -2.5.
`COc1cc(OC)cc(C(=O)Nc2cc(NC(=O)c3ccco3)ccc2OC)c1` gave STK33 kinase inh 1.1.
For CC(=O)Nc1ccc(S(=O)(=O)N2CCC(n3cnc4cc(F)ccc43)CC2)cc1 the results were STK33 kinase inh 0.8.
O=C1NC(=O)/C(=C\c2ccc(N3CCOCC3)o2)N1 was read as STK33 kinase inh 0.3.
Screening CCOC(=O)c1nnn(-c2nonc2N)c1CSc1nnc(N)s1 returned STK33 kinase inh -1.6.
`Cn1cc(CCC(=O)N2CCCC(Nc3ccc(F)cc3)C2)cn1` (stereo not drawn) gave STK33 kinase inh 5.9.
For CCN(CCCn1c(=S)[nH]c2ccc(N3CCOCC3)cc2c1=O)c1ccccc1 the results were STK33 kinase inh -0.3.
For COC(=O)c1nn(-c2ccccc2)c(Cl)c1/C=N/OCc1ccc(C)cc1 the results were STK33 kinase inh 0.2.
Screening CC(C)CN(CC(C)C)C(=O)CN1c2cccc3cccc(c23)S1(=O)=O returned STK33 kinase inh 0.3.
Screening O=C(CC1(CC2=NS(=O)(=O)c3ccccc3N2)CCCC1)NCCc1ccccc1 returned STK33 kinase inh -0.7.
Screening O=C(NCCNc1nccc(C(F)(F)F)n1)c1cccc(C(F)(F)F)c1 returned STK33 kinase inh 1.6.
For Cc1ccc(NC(=O)c2cc(S(=O)(=O)N3CCOCC3)c(Br)s2)cc1 the results were STK33 kinase inh 0.5.
For CC(=O)C1=C(O)C(=O)N(Cc2cccnc2)C1c1ccccc1 (stereo not drawn) the results were STK33 kinase inh -0.8.
`CCC(=O)c1cc(F)c(N2CCN(S(=O)(=O)c3ccc(C)cc3)CC2)cc1C` gave STK33 kinase inh -4.7.
`COc1ccc(C(=O)NNS(=O)(=O)c2ccc(C)cc2)cc1` gave STK33 kinase inh -1.1.
For COc1ccc(S(=O)(=O)NN(C)c2ncc(C(F)(F)F)cc2Cl)cc1 the results were STK33 kinase inh 0.9.
CC(=O)c1c(C)[nH]c(C(=O)Nc2ccccc2Cl)c1C was read as STK33 kinase inh -1.0.
For Cc1c(C(=O)N2CCCC2)c(S(=O)(=O)NCC(C)c2ccccc2)c(C)n1C (stereo not drawn) the results were STK33 kinase inh 0.7.
For Cc1ccnc(NC(=O)c2ccc(N3C(=O)CCC3=O)cc2)c1 the results were STK33 kinase inh -5.8.
For Cc1nc(NC(=O)CN2CCN(c3ccccc3F)CC2)sc1C(=O)N(C)C the results were STK33 kinase inh -0.4.
`O=C(O)CCCC(=O)Nc1ccccc1-n1ccnc1` gave STK33 kinase inh 0.0.
`CC1=CC(=C2N=C(c3ccccc3)OC2=O)C=C(C)O1` gave STK33 kinase inh 0.6.
CN(CC(=O)N1CCOCC1)S(=O)(=O)c1cc(Cl)ccc1Cl was read as STK33 kinase inh 0.0.
For Cc1cc(OCC(=O)Nc2cnn(CCCC(=O)O)c2)ccc1Cl the results were STK33 kinase inh 0.2.
Screening COc1cc(C2=CN(Cc3ccccc3)CCC2=O)cc(OC)c1OC returned STK33 kinase inh -0.2.
CCCCC(CC)CNC(=O)CCS(=O)(=O)c1cccc2nonc12 (stereo not drawn) was read as STK33 kinase inh -0.2.
`CC(O)c1nc2ccccc2n1Cc1nnc(-c2ccc(Cl)cc2)o1` (stereo not drawn) gave STK33 kinase inh -0.9.
Screening CN(Cc1cn(-c2ccccc2)nc1-c1cc2ccccc2o1)C(=O)CCC(=O)O returned STK33 kinase inh 1.9.
Cc1cc(C)cc(COn2ccnc2)c1 was read as STK33 kinase inh -1.7.
Screening O=C(NCCOc1ccccc1)C1CCC(=O)N(Cc2ccc(Cl)cc2)C1 (stereo not drawn) returned STK33 kinase inh -1.9.
Screening CC(=O)OCC(COC(C)=O)OC(C)=O returned STK33 kinase inh 0.3.
Screening COc1ccc(-c2nn(CCC(=O)O)cc2/C=C/C(=O)O)cc1[N+](=O)[O-] returned STK33 kinase inh -1.2.
`COCCNC(=O)c1ccccc1NC(=O)Cc1ccccc1` gave STK33 kinase inh -1.5.
`COC(=O)c1cccc(NC(=O)/C=C/c2ccc([N+](=O)[O-])cc2)c1` gave STK33 kinase inh -1.0.
For COc1ccc(Cl)cc1C(=O)n1nc(C)cc1C the results were STK33 kinase inh 1.5.
CS(=O)(=O)N1CCC(C(=O)NCc2ccc(F)cc2)CC1 was read as STK33 kinase inh 0.0.
Cc1nc(-c2ccc(F)cc2)c(CC(=O)N(C)CC(=O)Nc2ccc(Br)cc2C)s1 was read as STK33 kinase inh -0.2.
`Cc1ccc(S(=O)(=O)Nc2ccccc2C(=O)N2CCCC2)cc1` gave STK33 kinase inh -1.4.
Cc1cccc(C(=O)OCC(=O)c2csc(N3CCCCC3)n2)c1[N+](=O)[O-] was read as STK33 kinase inh -3.6.
`Fc1ccc(F)c(NC2=NCCCCC2)c1` gave STK33 kinase inh -1.4.
`O=C(Cc1cccs1)N1CCN(S(=O)(=O)c2ccccc2)CC1` gave STK33 kinase inh -0.4.
`CCc1ccc(Nc2cnn(-c3nc4ccccc4s3)c(=O)c2Cl)cc1` gave STK33 kinase inh -1.2.
Screening CN(C)S(=O)(=O)c1cccc(C(=O)Nc2ccccc2N2CCCCC2)c1 returned STK33 kinase inh -0.2.
NNC(=O)CSCc1nc(-c2ccc(Cl)cc2)cs1 was read as STK33 kinase inh -2.2.

Entries listed so far containing two or more sulfur atoms (14):
For O=C(CSCCS(=O)(=O)c1ccc(Cl)cc1)Nc1ccccc1 the results were STK33 kinase inh -0.5.
O=C(CSc1nnnn1-c1ccccc1)Nc1ncc(Cc2ccccc2Cl)s1 was read as STK33 kinase inh -0.4.
CCOc1ccccc1NC(=O)CCS(=O)(=O)c1cccc2nsnc12 was read as STK33 kinase inh 2.1.
For CSc1cccc(NC(=S)N(CCCN2CCC(C)CC2)Cc2cccs2)c1 the results were STK33 kinase inh -0.7.
Screening CCn1c(CCNC(=O)c2cccs2)nnc1SCC(=O)Nc1nc(-c2ccccc2)cs1 returned STK33 kinase inh -0.7.
O=C(NNS(=O)(=O)c1ccccc1)C1CCN(S(=O)(=O)c2ccccc2)CC1 was read as STK33 kinase inh 1.2.
For CCNC(=S)N1CCN(S(=O)(=O)c2ccc(C)c(C)c2)CC1 the results were STK33 kinase inh -0.6.
For CC1CCCCN1S(=O)(=O)c1ccc(S(=O)(=O)N2CCN(C)CC2)cc1 (stereo not drawn) the results were STK33 kinase inh 0.9.
Screening CC1CCCCN1C(=O)CSc1nnc(CSc2ncccn2)n1C (stereo not drawn) returned STK33 kinase inh -0.6.
`Cc1ccsc1/C=N/NC(=O)CN1CCN(S(=O)(=O)c2ccc(Br)cc2)CC1` gave STK33 kinase inh -1.0.
Screening CCOC(=O)c1nnn(-c2nonc2N)c1CSc1nnc(N)s1 returned STK33 kinase inh -1.6.
For Cc1ccc(NC(=O)c2cc(S(=O)(=O)N3CCOCC3)c(Br)s2)cc1 the results were STK33 kinase inh 0.5.
`O=C(Cc1cccs1)N1CCN(S(=O)(=O)c2ccccc2)CC1` gave STK33 kinase inh -0.4.
NNC(=O)CSCc1nc(-c2ccc(Cl)cc2)cs1 was read as STK33 kinase inh -2.2.

Source: PubChem
